H5N1 antiviral: MDCK cell protection from H5N1 avian flu; cytopathic effect, luminescence, 72 h; active compounds read high; no value below 0 was filed and about half of the inactive calls have no number; reference of the scale not given here; inhibition, % at 50 µM; hit rate 0.07% among 96,000; AID 740; in the data active = inhibition above about 25%
The depositor's hits bear a star; i = inactive. Not all compounds are listed, so the mix of outcomes need not match the whole.

compound,H5N1 antiviral
CCC12CCCN3CCC4(C(=C(C(=O)OC)C1)Nc1ccccc14)C32 (stereo not drawn),i
O=C(Cn1nc(-c2ccccc2)c2ccccc2c1=O)NCCN1CCOCC1,i
CC(C)Cc1cc(C(=O)Nc2cc(C(F)(F)F)ccc2Cl)no1,i
O=C1NCC(c2ccccc2)C1C(=O)N/N=C\c1ccc(-c2cccc(Cl)c2Cl)o1 (stereo not drawn),i
Oc1ccccc1CNc1ccc(Br)cn1,i
O=S(=O)(c1cccc2nsnc12)N1CCN(c2ncccn2)CC1,4.2
CC(C)(C)NC(=O)c1ccc(COc2ccccc2Br)o1,3.6
O=C(Cc1cn2ccsc2n1)Nc1ccccc1Oc1ccccc1,i
O=C1c2ccccc2N2C(=O)c3ccccc3C2N1O (stereo not drawn),i
CCOC(=O)CSc1nc(C)c(C(C)=O)cc1C#N,0.0
Cc1cccc(Cn2c(N(C)Cc3ccccc3)nc3c2c(=O)[nH]c(=O)n3C)c1,1.4
CC1(C)CC(=O)C(/C=N/n2c(C(F)(F)F)nc3ccccc3c2=O)=C(O)C1,i
COc1ccc(Nc2ncc(C(=O)N3CCC4(CC3)OCCO4)c3ccccc23)cc1,i
Nc1ccc2nn(-c3cccc4ccccc34)nc2c1,0.6
CC(NC(=O)CSc1nc2c(cc1C#N)CN(C)CC2)c1ccccc1 (stereo not drawn),i

Continuation.
compound,H5N1 antiviral
CC(C)(C)n1nc2c(c1NC(=O)c1ccccc1F)CS(=O)C2 (stereo not drawn),i
O=C(CN1C(=O)CSc2ccccc21)NC1CCCC1,i
CC1(C)NC(=O)N(CC(O)CN2CCCC2)C1=O (stereo not drawn),i
CCC(C)(C)n1nnnc1C(c1cc2ccc(OC)cc2[nH]c1=O)N1CCc2ccccc21 (stereo not drawn),i
Cn1c(Cc2cccs2)nnc1SCC(=O)N1CCCc2ccccc21,i
CCOc1ccccc1C(=O)N(Cc1cccs1)C1CCS(=O)(=O)C1 (stereo not drawn),0.6
CNc1nc(Sc2ccccc2)cc(C(F)(F)F)n1,i
N#CC1=C2SCC(O)(c3ccccc3)N2C(=O)CC1c1ccccc1F (stereo not drawn),i
CCc1ccc(NC(=O)CSC2=C(C#N)C(c3ccco3)C3=C(CCCC3=O)N2)cc1 (stereo not drawn),0.7
CC(=O)NC1CC2CCC(C1)N2 (stereo not drawn),0.6
Cc1cc(SCc2ccccc2)nc(=O)[nH]1,i
COc1ccc(-c2ccc(NCCC3=CCCCC3)nn2)cc1OC,1.3
Cc1c(Cl)ccc2c1NC(=O)[C@]21N[C@@H](CCC(N)=O)[C@H]2C(=O)N(c3ccc(F)cc3)C(=O)[C@H]21,i
CCC(C)NC(=O)c1c(N)n(CC2CCCO2)c2nc3ccccc3nc12 (stereo not drawn),i
Cc1ccc(C(=O)N2CCN(C(=O)CN3CCOCC3)C2)cc1,0.7

Part of the list above, with each value named.
CC(=O)NC1CC2CCC(C1)N2 (stereo not drawn)
  H5N1 antiviral: 0.6
Cc1cc(SCc2ccccc2)nc(=O)[nH]1
  H5N1 antiviral: i
COc1ccc(-c2ccc(NCCC3=CCCCC3)nn2)cc1OC
  H5N1 antiviral: 1.3
Cc1c(Cl)ccc2c1NC(=O)[C@]21N[C@@H](CCC(N)=O)[C@H]2C(=O)N(c3ccc(F)cc3)C(=O)[C@H]21
  H5N1 antiviral: i

Following part
compound,H5N1 antiviral
CCOC(=O)c1snc(C(=O)NC2CCCCC2)c1N,0.2
COc1cc(OC)cc(C(=O)NC(=S)N2CCN(c3ccc(C(F)(F)F)cc3[N+](=O)[O-])CC2)c1,i
CSc1nc(-c2ccccc2)nc(SC)c1C(C)=O,i
Cc1noc(C)c1C(c1ccccc1)c1ccccc1,0.9
COc1ccc(N(C(=O)c2ccc(S(=O)(=O)N3CCOCC3)cc2)C2C=CS(=O)(=O)C2)cc1 (stereo not drawn),1.1
COc1ccc(Nc2nc(C)cc(C)c2C(N)=O)cc1,0.6
CS(=O)(=O)Nc1ccc(C(=O)NCc2ccc3c(c2)OCO3)cc1,0.3
CN1C(=O)/C(=N\OC(=O)c2cccc3ccccc23)c2ccccc21,i
O=C(COc1ncnc2ccc(Br)cc12)NCc1ccc2c(c1)OCO2,0.2
COc1ccc(-n2c(Cc3cccn3C)nnc2SCC(=O)Nc2ccc3c(c2)OCCO3)cc1,2.4
CCCN1CCN(CCCNC(=O)Cn2nc(-c3ccc(C)cc3)ccc2=O)CC1,0.2
Cc1ccc(C)c(NC(=O)Cn2nc(-c3ccccc3)nc2-c2ccccc2)c1,i
Cc1oc(-c2ccccc2F)nc1CN1CCC(C(=O)NCc2cccnc2)CC1,i
COc1cccc2c1OCC(C(=O)NCc1ccc(Cl)cc1Cl)=C2,1.0
Cc1cc(NS(=O)(=O)c2ccccc2)cc(Cl)c1O,i

Seven entries from above, arranged by molar mass, ascending.
compound,H5N1 antiviral
Cc1noc(C)c1C(c1ccccc1)c1ccccc1,0.9
CSc1nc(-c2ccccc2)nc(SC)c1C(C)=O,i
Cc1cc(NS(=O)(=O)c2ccccc2)cc(Cl)c1O,i
CN1C(=O)/C(=N\OC(=O)c2cccc3ccccc23)c2ccccc21,i
Cc1ccc(C)c(NC(=O)Cn2nc(-c3ccccc3)nc2-c2ccccc2)c1,i
Cc1oc(-c2ccccc2F)nc1CN1CCC(C(=O)NCc2cccnc2)CC1,i
O=C(COc1ncnc2ccc(Br)cc12)NCc1ccc2c(c1)OCO2,0.2

The list goes on:
compound,H5N1 antiviral
CCOc1ccc(-c2nn(-c3ccccc3)cc2/C=C2\SC(=S)N(C3CCS(=O)(=O)C3)C2=O)cc1 (stereo not drawn),1.8
CCC(OC(=O)c1cccs1)C(=O)NCc1ccc2c(c1)OCO2 (stereo not drawn),0.4
Cc1ccc(CN=Cc2[nH]c3ccc(Br)c(Cl)c3c2O)cc1,i
O=S(=O)(NCCc1ccccn1)c1cccs1,0.3
O=C(CSC1=Nc2ccccc2C2=NC(c3ccccc3)C(=O)N12)NC1CCCCC1 (stereo not drawn),1.9
OCCCc1nc2n(n1)C(c1cccs1)C=C(c1ccc(Br)cc1)N2 (stereo not drawn),i
O=S(Cc1ccc(Cl)cc1)CC(O)COCc1ccc(Cl)cc1 (stereo not drawn),0.5
FC(F)(F)c1cnc(-n2cc[nH]c2=S)c(Cl)c1,i
CC(=O)c1sc(NC(=O)c2ccco2)nc1-c1ccccc1,i
COc1ccc(C)cc1NC(=O)CN1CCN(C/C=C/c2ccccc2)CC1,i
O=C(CSc1ncnc2c1oc1ccccc12)NCc1ccc(F)cc1,i
Cc1ccc(CNC(=O)COC(=O)c2cnccn2)cc1,i
Cc1cc(Cl)c(S(=O)(=O)N2CCN(c3ccc(F)cc3)CC2)cc1OCC(N)=O,0.1
CC(C)[C@H](NC(=O)OC(C)(C)C)c1nnc(SCC(=O)Nc2ccc(Br)cc2)o1,i
COc1ccccc1CCn1c(N)c(C#N)c2nc3ccccc3nc21,i

Other structures follow:
compound,H5N1 antiviral
CC(C)(C)C(=O)Nc1ccc(C(=O)Nc2cccnc2)cc1,0.1
CCC(C)NC(=O)CSc1ncccc1C(=O)O (stereo not drawn),i
COCc1nnc(NC(=O)CC(C)c2ccccc2)s1 (stereo not drawn),0.3
CC(C)N(Cc1nc(-c2ccccc2)no1)C(=O)CN(C)S(=O)(=O)c1ccc(Br)cc1,2.7
Cc1nn(C(=O)c2ccco2)c(C)c1CN1C(=O)c2ccccc2C1=O,6.0
CCOc1cc2[nH]c(=S)n(Cc3ccc(C(=O)NCC(OC)OC)cc3)c(=O)c2cc1OCC,i
COc1ccc(OC(=O)N(C)C)c(CN(C)C)c1,i
CC(C)N(C(=O)C1CC(=O)OC12CCCCC2)C(C)C (stereo not drawn),0.6
Cc1ccc(C)c(OCCCC(=O)O)c1,0.6
COc1ccc2cc(CCNC(=O)C(C)C)c(=O)[nH]c2c1,1.5
CN(C(=O)/C(N=Nc1cccc(C(F)(F)F)c1)=C(\O)C(F)(F)F)c1ccccc1,i
CCCOc1ccc2oc(=O)c3c(c2c1)CCCN3C(=O)CN1CCN(C(=O)c2ccco2)CC1,1.7
COCCn1c(SCC(=O)Nc2cccc(OC)c2)nnc1-c1ccccc1,i
O=C(O)CSc1nnc(Cc2ccccc2)n1-c1ccccc1,0.7
N#Cc1ccc(C(c2nnnn2Cc2ccccc2)N2CCCC2)cc1 (stereo not drawn),0.1

Following part
compound,H5N1 antiviral
COC(=O)c1c(N)n(CCCN2CCOCC2)c2nc3ccccc3nc12,1.0
O=C1c2ccccc2NC(c2ccc(Cl)cc2Cl)N1Cc1ccccc1 (stereo not drawn),i
Cc1cc(OC(=O)c2ccco2)c2c3c(c(=O)oc2c1)CCC3,0.7
Nc1nncn1C(=O)c1c(Cl)cccc1Cl,i
Cc1ccc(CSc2nnc([C@@H]3CCCN3)o2)cc1,i
O=C(Nc1cccn(Cc2ccccc2)c1=O)NC1CCCCC1,i
Cc1cnn(C(=O)c2cc(-c3ccccc3)nc3ccccc23)c1,i
COc1cccc(C(=O)Nc2ccc(NC(C)=O)cn2)c1,0.0
CCCOc1ccc(-c2nnn(CC(=O)c3ccc4c(c3)OCCO4)n2)cc1,0.4
Cc1cc2cc3c(cc2nc1SCC(=O)Nc1nc(C)c(C)s1)OCO3,i
CCC1/C(=N\O)CC(c2ccco2)NC1c1ccco1 (stereo not drawn),i
COc1ccc2c(CC(=O)OCC(=O)Nc3ccc4c(c3)OCO4)coc2c1,i
Cc1ccc(-n2c(SCC(=O)NCC3CCCO3)nc3n[nH]c(C)c3c2=N)cc1Cl (stereo not drawn),0.9
O=C(Nc1cccc2ccccc12)N1CCN(Cc2ccccc2)CC1,i
CCn1nc(CC(=O)Nc2nnc(CC(=O)N3CCCCC3)s2)c2ccccc2c1=O,0.3

Other results
compound,H5N1 antiviral
C=CCSc1ncccc1C(=O)NCc1ccccc1,0.3
CC(C)(O)c1cc(=O)sc2nc3ccccc3n12,i
CNC(=O)C1CC(=O)N(Cc2ccc3c(c2)OCO3)C(=Nc2ccc(F)cc2)S1 (stereo not drawn),i
CCN(CC)Cc1cc(NC2=NS(=O)(=O)c3ccccc32)ccc1OC(=O)C(C)C,0.1
Brc1ccc(-c2nc3ncccn3c2NC2CCCCC2)o1,2.7
COc1ccc2c(c1OC)C(=O)N(c1nccs1)C2,i
CC(=O)Nc1c(C(=O)C2CC2)oc2ccccc12,0.8
COC(=O)c1c(NC(=O)CSc2nnc(-c3ccco3)n2Cc2ccccc2)sc(C)c1C,i
O=[N+]([O-])c1cc(/C=N/OCc2c(Cl)cccc2Cl)ccc1N1CCOCC1,0.7
CCc1ccc(N2CC(C(=O)Nc3ccccc3F)CC2=O)cc1 (stereo not drawn),1.0
Cc1cc(NC(=O)C2C3C(=O)N(CCC(C)C)C(C(=O)NCc4ccccc4)C34C=CC2(C)O4)no1 (stereo not drawn),1.5
Cc1c(Nc2cc(N3CCCC(C)C3)c3nonc3c2[N+](=O)[O-])c(=O)n(-c2ccccc2)n1C (stereo not drawn),0.6
COc1ccc(CC(=O)N2CCN(c3ccc(C4=NNC(=O)CC4C)cc3)CC2)cc1 (stereo not drawn),0.3
O=C(Cc1n[nH]c(=O)c2ccccc12)Nc1ccc(-c2nnc3n2CCCCC3)cc1,0.3
c1ccc2c(c1)[nH]c1c(N3CCC4(CC3)OCCO4)ncnc12,0.7

(list continues)
compound,H5N1 antiviral
Cc1c(Br)c([N+](=O)[O-])nn1C(C)C(=O)N1CCCc2ccccc21 (stereo not drawn),i
CCOC(=O)N1CCN(C(=O)CSCc2nc(-c3ccccc3F)oc2C)CC1,1.8
COc1cc(/C=N/NC(=Nc2ccc(C)cc2)c2nc3ccccc3s2)ccc1O,i
CC1CCc2c(c3ccccc3[nH]c2=O)O1 (stereo not drawn),1.7
Cc1ccc(C(=O)c2cnc3ccccc3c2-c2ccccc2)cc1,3.5
COC(=O)c1cc(C#N)c(Oc2cccc(C)c2C)nc1C,i
COc1cc(OC)c(OC)cc1CN1CCN(c2ccccc2OC)CC1,1.6
C=CCSc1nnc(-c2nnc(SCC=C)n2-c2ccccc2)n1-c1ccccc1,0.2
CCCCOCCCNC(=O)CCCOc1ccccc1,1.0
O=C(NCCc1ccncc1)Nc1ccc(Cl)cc1,0.8
COCc1cc(C)nc(N2CCNCC2)c1C#N,0.1
Cn1cccc1C(=O)C(=O)Nc1cc(Cl)cc(Cl)c1,i
CC(=O)Nc1ccc(S(=O)(=O)NCC2CCC(C(=O)NCCCN3CCCC3=O)CC2)cc1 (stereo not drawn),0.8
COc1ccc2nc(NC(=O)CSc3nc(C)cc(=O)[nH]3)sc2c1,0.7
O=C(CN1C2CCC1CC(O)(c1cccnc1)C2)Nc1ccc2c(c1)OCO2 (stereo not drawn),1.2

Next results
compound,H5N1 antiviral
O=C(O)c1ccc2c(c1)NC(=O)C(N1CCCC1)S2 (stereo not drawn),i
CC(=O)Nc1nc(S(=O)(=O)c2ccc(C)cc2)c(Cl)s1,0.1
CCOc1ccc(NC(=O)Cn2nnc(-c3ccccc3NC(=O)c3cccs3)n2)cc1,i
CC(=O)Nc1ccc(NC(=O)C(C)Oc2ccccc2F)cc1 (stereo not drawn),i
CCn1c(=O)c(C(=O)NCCN2CCCCC2)c(O)c2ccccc21,i
O=C(COC(=O)c1ccc(S(=O)(=O)NCc2ccco2)cc1)Nc1ccc(OC(F)F)cc1,1.3
O=C(COc1ccccc1Cl)NCc1ccncc1,i
CCn1c(SCC(=O)Nc2nccs2)nnc1-c1ccncc1,i
c1ccc2[nH]c(CN3CCOCC3)nc2c1,i
Cc1oc(-c2ccc(Cl)cc2)nc1CN1CCCC(C(=O)NCc2cccnc2)C1 (stereo not drawn),i
